# nsP2pro inh = inhibitors of chikungunya virus nsP2 protease. Potency, µM (doses to about 24.9 µM), for inactives: at the highest dose activity change, negative = inhibition, usual class: inhibitors. FRET peptide cleavage, nsP2pro, fluorescence 1 h. 1.1% of 31,000 active. AID 1964107; active means well fitted inhibition curve with a large enough effect; inconclusive means small, poorly fitted or top-dose-only effect; inactive means no such curve, though single readings can be large or run the other way; note: nearly all actives have a fitted effect of over 60% in size; a reference inhibitor and vehicle were the controls
# Target sequence (Q8JUX6 whole entry, looked up): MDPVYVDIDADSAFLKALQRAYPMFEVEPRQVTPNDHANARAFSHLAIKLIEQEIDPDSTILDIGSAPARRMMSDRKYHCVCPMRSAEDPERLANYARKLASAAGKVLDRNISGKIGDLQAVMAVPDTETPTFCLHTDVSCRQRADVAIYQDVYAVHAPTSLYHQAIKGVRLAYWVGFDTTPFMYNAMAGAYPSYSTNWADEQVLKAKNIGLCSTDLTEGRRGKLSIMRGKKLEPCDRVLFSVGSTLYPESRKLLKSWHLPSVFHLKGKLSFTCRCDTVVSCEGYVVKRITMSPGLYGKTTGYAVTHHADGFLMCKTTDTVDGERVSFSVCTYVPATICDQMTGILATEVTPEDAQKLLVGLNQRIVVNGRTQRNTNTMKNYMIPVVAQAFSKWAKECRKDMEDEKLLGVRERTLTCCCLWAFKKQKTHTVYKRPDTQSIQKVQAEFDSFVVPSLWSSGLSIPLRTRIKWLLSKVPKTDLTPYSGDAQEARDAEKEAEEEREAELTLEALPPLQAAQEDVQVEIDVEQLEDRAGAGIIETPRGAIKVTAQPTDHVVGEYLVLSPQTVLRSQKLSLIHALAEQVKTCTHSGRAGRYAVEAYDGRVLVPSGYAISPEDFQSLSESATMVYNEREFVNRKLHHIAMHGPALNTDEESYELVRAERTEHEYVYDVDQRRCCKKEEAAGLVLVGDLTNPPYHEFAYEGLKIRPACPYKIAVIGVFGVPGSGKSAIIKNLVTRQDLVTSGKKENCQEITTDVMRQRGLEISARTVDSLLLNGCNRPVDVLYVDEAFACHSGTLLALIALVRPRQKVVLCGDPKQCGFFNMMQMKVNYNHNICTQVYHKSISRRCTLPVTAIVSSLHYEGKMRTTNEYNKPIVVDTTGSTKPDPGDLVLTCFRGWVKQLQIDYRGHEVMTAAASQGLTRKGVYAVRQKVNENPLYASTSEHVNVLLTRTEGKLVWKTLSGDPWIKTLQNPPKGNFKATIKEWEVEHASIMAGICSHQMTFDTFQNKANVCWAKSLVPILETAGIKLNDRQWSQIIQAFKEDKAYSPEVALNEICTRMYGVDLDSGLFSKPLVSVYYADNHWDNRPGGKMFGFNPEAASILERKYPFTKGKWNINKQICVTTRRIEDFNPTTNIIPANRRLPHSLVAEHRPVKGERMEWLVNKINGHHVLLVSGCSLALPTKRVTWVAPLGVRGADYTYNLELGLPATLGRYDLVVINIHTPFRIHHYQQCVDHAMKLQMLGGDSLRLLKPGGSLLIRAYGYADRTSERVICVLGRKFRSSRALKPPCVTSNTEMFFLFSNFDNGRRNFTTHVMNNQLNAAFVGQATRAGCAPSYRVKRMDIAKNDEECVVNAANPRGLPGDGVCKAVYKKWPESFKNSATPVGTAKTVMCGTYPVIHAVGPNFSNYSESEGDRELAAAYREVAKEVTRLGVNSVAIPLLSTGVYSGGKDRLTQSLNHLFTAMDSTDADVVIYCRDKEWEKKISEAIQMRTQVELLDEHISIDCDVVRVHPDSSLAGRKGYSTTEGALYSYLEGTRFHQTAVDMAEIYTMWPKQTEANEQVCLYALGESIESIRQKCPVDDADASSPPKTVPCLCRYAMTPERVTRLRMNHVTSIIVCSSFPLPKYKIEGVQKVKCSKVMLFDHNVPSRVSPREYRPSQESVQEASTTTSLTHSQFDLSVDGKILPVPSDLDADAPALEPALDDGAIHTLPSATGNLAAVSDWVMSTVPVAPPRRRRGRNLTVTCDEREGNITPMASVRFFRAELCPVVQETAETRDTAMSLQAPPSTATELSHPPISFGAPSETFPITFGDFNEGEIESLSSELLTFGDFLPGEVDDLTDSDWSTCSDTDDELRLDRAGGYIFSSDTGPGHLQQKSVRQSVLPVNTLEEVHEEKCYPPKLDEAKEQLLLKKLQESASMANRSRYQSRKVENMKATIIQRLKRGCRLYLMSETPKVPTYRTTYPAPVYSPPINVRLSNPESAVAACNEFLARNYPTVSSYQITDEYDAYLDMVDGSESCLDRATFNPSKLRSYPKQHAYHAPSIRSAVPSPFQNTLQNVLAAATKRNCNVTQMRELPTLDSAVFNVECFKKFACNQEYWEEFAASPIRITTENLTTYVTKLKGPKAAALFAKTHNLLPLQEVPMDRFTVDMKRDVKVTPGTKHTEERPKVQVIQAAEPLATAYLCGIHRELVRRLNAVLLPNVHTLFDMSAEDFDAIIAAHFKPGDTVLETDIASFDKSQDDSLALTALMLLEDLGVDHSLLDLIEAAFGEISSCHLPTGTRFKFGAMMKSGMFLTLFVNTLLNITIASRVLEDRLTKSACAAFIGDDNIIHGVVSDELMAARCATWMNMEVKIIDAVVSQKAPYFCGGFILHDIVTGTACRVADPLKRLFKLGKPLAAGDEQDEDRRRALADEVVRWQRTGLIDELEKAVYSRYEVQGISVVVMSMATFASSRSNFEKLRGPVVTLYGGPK
# An asterisk follows results filed as active; i = inactive; ? = inconclusive; & = joins results of further samples; [ ] = remark or other dose. % is set by controls: 0 for no effect and ±100 for the full control effect; potency is the fitted concentration of half-maximal effect. Some of the compounds tested; count on the stated rates, not on these rows.
SMILES,nsP2pro inh
CCC(C)C1NC(=O)C2CCCN2C(=O)C(C(C)C)NC(=O)c2ccccc2NC(=O)C(Cc2ccc(O)cc2)NC(=O)C(C)NC(=O)C(C(C)O)NC1=O (stereo not drawn),-17%[10 µM]
CC1CCC2C(C)(C)C(O)CCC2(C)C12Cc1c(O)cc3c(c1O2)CN(C(CCCN=C(N)N)C(=O)O)C3=O (stereo not drawn),?
O=C1Cc2cc(S(=O)(=O)N3CCNCC3)ccc2N1,i
O=c1[nH]c2ccc(S(=O)(=O)N3CCN(S(=O)(=O)c4ccc5c(c4)OCCO5)CC3)cc2[nH]c1=O,3%
Cc1ccc(C)c(CN2CCCN(Cc3ccc(F)cc3)S2(=O)=O)c1,-11%
CCOC(=O)C1CCCN(C(=O)c2ccc3c(c2)N(Cc2cccc(Cl)c2)C(=O)c2ccccc2S3(=O)=O)C1 (stereo not drawn),-14%
Cc1cc(C)cc(N2C(=O)CC(c3ccc(C(F)(F)F)cc3)C3=C2COC3=O)c1 (stereo not drawn),-27%
CCOc1ccc(CCNC(=O)c2csc(Br)n2)cc1OCC,0%
Cc1ccc2c(c1)N(CCCC(=O)N1CCC(C)(c3noc(C4CC4)n3)CC1)C(=O)CO2,i
Cc1ccnc(NC(=S)N2CC[C@@H](Nc3cccc(C(F)(F)F)c3)C2)c1,4%
O=C(COCC(=O)N1CCN(C(c2ccccc2)c2ccccc2)CC1)Nc1ccc(Cl)cc1C(=O)O,-4%
Cc1cc(-c2ccc(/C=C3\SC(=Nc4ccc(Cl)c(C(=O)O)c4)NC3=O)o2)c([N+](=O)[O-])cc1C,-23%
COc1ccc(CCNc2ncnc3c2CN(c2ccc(C)cc2)C(=O)CN3C)cc1,3%
C[C@]1(O)CCN(C(=O)c2cccc(Cn3cccn3)c2)C[C@@H]1O,-2%
CCOC(=O)c1[nH]c2ccccc2c1NC(=O)c1ccc(OC)c(OC)c1,-20%
Cc1ccc(NC(=O)CCNS(=O)(=O)c2cccs2)cc1F,-8%
Cc1cc(C)nc(NC(=S)N2CCN(c3cccc(OC(F)F)c3)CC2)c1,3%
O=C(CCC[C@@H]1[C@H]2CCCN3CCC[C@@H](CN1Cc1cccnc1)[C@@H]23)N1CCN(C2CCCC2)CC1,i
CCC(C)CC(=O)OC1C(=O)C(CO)=CC(O)C1C(C)C (stereo not drawn),-7%
COc1cc(OC)c(NC(=O)C(NS(=O)(=O)c2cccc3nsnc23)c2ccccc2)cc1Cl (stereo not drawn),-3%
O=C1CCN(C(=O)C2CCN(C(=O)c3ccc4ccccc4n3)CC2)CCCCCCN1,-1%
O=C(C1CC1)N1CCCC2(CN[S+](=O)([O-])c3cccnc3O2)C1 (stereo not drawn),3%
COc1cc(CN2CCC(CO)(CN3CCCC3)CC2)ccc1F,0%
COc1cccc(-c2nc(C(N)=O)c3c(n2)n(-c2ccc4c(c2)OCO4)c(=O)n3C)c1OC,-21%
O=C(Nc1cccc(C(=O)OCc2cc(=O)n3nc(C4CC4)sc3n2)c1)c1cccc(F)c1,-21%
# Carrying on:
SMILES,nsP2pro inh
Cc1ccc(CSCC(=O)N2CCN(c3cc(Cl)ccc3C)CC2)cc1,-20%
O=c1c2ccccc2nc2sc(NCc3ccccc3)nn12,0%
COc1cc(SC)c(OC)cc1CN1CCC2(CC(=O)NC2=O)C1 (stereo not drawn),-2%
Cc1cc(C)n2ncc(C(=O)Nc3ccc(C)c(C)c3)c2n1,1%
CCc1nn(CC(=O)NCCCN2CCN(CC)CC2)c(=O)c2cc3occc3n12,-21%
CN1CC[C@@]2(C)c3cc(O)ccc3N(C)C2O1 (stereo partly drawn),?
COc1cccc(-c2nc(-c3ccc(C(=O)O)cc3)no2)c1,i
COc1cc(C2CC(=O)Nc3c2cc(Br)c2ccccc32)cc(OC)c1OC (stereo not drawn),22%
CCCN(C)c1nccnc1OC1CCN(C(=O)c2cccc(OC)c2OC)C1 (stereo not drawn),-15%
COc1ccc(-c2cn3c(n2)sc2cc(C(=O)Nc4ccc(F)cc4Cl)ccc23)cc1,5%
CCOC(=O)c1ccc(-c2ccc3ncnc(N(C)Cc4ccc(C)o4)c3c2)o1,-9%
CCc1nccc(CN2CCCC(CC3CC3)(C(=O)O)C2)n1 (stereo not drawn),-18%
CCn1c2ccccc2c2cc(CN3CCN(Cc4ccccc4Cl)CC3)ccc21,5%
Cc1cccc(CNc2ncnc3ccc(-c4cccnc4)cc23)c1,i
CS(=O)(=O)NCCc1ccc(CC2CCN(C(=O)c3cnccn3)CC2)cc1,i
CN1CCN(C(=O)[C@H](Cc2ccc(O[S+](=O)([O-])c3cccc4cnccc34)cc2)N[S+](=O)([O-])c2cccc3cnccc23)CC1,-3%
CC(Sc1nc2c(c(=O)[nH]1)CCCC2)C(=O)Nc1cc(C(F)(F)F)ccc1Cl (stereo not drawn),-19%
O[C@@H]1CO[C@H]2[C@@H]1OC[C@@H]2n1nnnc1Sc1ncccn1,-13%[39.2 µM]
CCOc1ccccc1NC(=O)c1c(NC(=O)Cc2ccccc2)sc2c1CCCC2,20%
COc1ccc(CCNC(=O)C(C)n2c(=O)cc(-c3ccccc3)c3c(C)nn(C)c32)cc1OC (stereo not drawn),-11%
CCOc1cc(CNC(=O)c2ccc3c(c2)NC(=O)C2CCCCN32)cc(OCC)c1OCC (stereo not drawn),?
O=C(Nc1ccc(N2CCOCC2)c(C(=O)O)c1)c1ccc(Br)cc1,3.5µM*
CC(C)(C)OC(=O)NCCCC(=O)N1CCC(n2c(=O)[nH]c3ccccc32)CC1,-20%
C/C=C(\C)C(=O)O,1%
CCCCOC(=O)c1ccnc2cc(C(OCCN3CCCCC3)c3ccccc3C)sc12 (stereo not drawn),46%[activator]
# Following part:
SMILES,nsP2pro inh
CN1[C@@H]2CC[C@H]1CC(OC(=O)c1c[nH]c3ccccc13)C2 (stereo partly drawn),1%&12%
C[C@@H]1CN(C(=O)c2ccc(-c3ccn[nH]3)cc2)CC[C@@]1(O)C1CCOCC1,i
COCCNC(=O)C[C@@H]1C[C@H]2O[C@H](CNCc3cccnc3OC)[C@@H](O)[C@H]2O1,i
COc1ccc(Cl)cc1NC(=O)Cn1c(=O)n(Cc2ccc(F)cc2)c(=O)c2cccnc21,-10%
COc1cccc2cc(-c3nc(-c4cccs4)no3)c(=O)oc12,-16%
COc1ccc([C@H]2OC[C@H]3O[C@@H](O[C@H]4[C@@H]2NC[C@@H]4O)[C@H](O)[C@H]3O)cc1,-13%
COc1ccc(CCCN2CCC(COC(c3ccccc3)c3ccccc3)CC2)cc1,28%
COC(=O)CNC(c1ccccc1)c1cc(Br)ccc1NC(=O)c1cc(OC)c(OC)c(OC)c1 (stereo not drawn),-6%
COc1ccc(C(=O)NCCn2c(C)cnc2-c2ccccc2)cn1,i
COc1ccc(NC(=O)c2nc(S(=O)(=O)Cc3ccc(C)cc3)ncc2Cl)cc1,-30%
CN1C(=O)CS(=O)C12CCN(C(=O)C1(c3ccccc3)CC1)CC2 (stereo not drawn),i
c1ccc(Cc2ncc3c(n2)CCNCC3)cc1,-15%
Cn1nnnc1SCCCNCc1ccccc1OCc1ccc(F)cc1,?
Cc1cc(OC2CN(C(=O)c3ccccn3)C2)ccc1F,-5%[39.2 µM]
CC(C)(O)CNc1nc(Nc2ccnc(C(F)(F)F)c2)nc(-c2cccc(C(F)(F)F)n2)n1,-9%&26%
COC(=O)c1c(NC(=O)c2ccc(S(=O)(=O)N(C)C3CCCCC3)cc2)sc2c1CCN(C)C2,13%
Cc1ccc(-n2c(=O)c3c(c4cc(C)ccc4n3C)n(CC(=O)NCc3ccccc3Cl)c2=O)cc1,3%
CCOc1ccc(CCNC(=O)C2(c3ccccc3)CC2)cc1OCC,-1%
COc1cccc(CN2CC3(C2)NC(=O)c2ccccc2O3)c1,-17%[39.2 µM]
Cc1cc(C=CC#N)cc(C)c1Nc1nc(Nc2ccc3c(c2)OCO3)c2[nH]cnc2n1,2%
Cc1ccnc(NS(=O)(=O)c2ccc(NC(=O)Nc3ccc(S(=O)(=O)Nc4nccc(C)n4)cc3)cc2)n1,37%[activator]
Cc1cccc(O[C@H]2COCCN(c3nc4ccccc4s3)C2)n1,-23%[39.2 µM]
O=S(=O)(Nc1nccs1)c1ccc(NCc2ccccc2O)cc1,i
N#Cc1cccc(NC(=O)Cn2nc(Cc3ccncc3)c3ccccc3c2=O)c1,-21%
O=[N+]([O-])c1cc(-c2nc(-c3ccccc3)no2)ccc1NC1CCCCC1,-24%

# Pulled by compound from the entries so far (six):
SMILES,nsP2pro inh
COc1ccc([C@H]2OC[C@H]3O[C@@H](O[C@H]4[C@@H]2NC[C@@H]4O)[C@H](O)[C@H]3O)cc1,-13%
Cn1nnnc1SCCCNCc1ccccc1OCc1ccc(F)cc1,?
CCOc1ccc(CCNC(=O)C2(c3ccccc3)CC2)cc1OCC,-1%
Cc1cccc(O[C@H]2COCCN(c3nc4ccccc4s3)C2)n1,-23%[39.2 µM]
COc1ccc(CCCN2CCC(COC(c3ccccc3)c3ccccc3)CC2)cc1,28%
COc1cccc2cc(-c3nc(-c4cccs4)no3)c(=O)oc12,-16%

# (more compounds)
SMILES,nsP2pro inh
Cc1ccc(NC(=O)C2CCCN(c3nnc(C)c4c(C)n(-c5ccccc5)nc34)C2)c(Cl)c1 (stereo not drawn),-17%
Cc1nc2ccc(S(=O)(=O)N(CC(=O)Nc3cccc(F)c3)Cc3ccccc3)cc2s1,6%
Cc1c(C)n(Cc2ccc(F)cc2)c2ccc(C(=O)NCc3ccco3)cc12,-30%
CCOC(=O)c1c(C)oc2nc(C)nc(Nc3cc(C)ccc3OC)c12,-21%
Cc1ncc(CCCN(C)C)cc1Nc1ncc2c(n1)-c1ccc(C(F)(F)F)cc1NC(=S)C2,83%[activator]
Cc1noc(C)c1S(=O)(=O)N1CC(n2cnnc2C2CCCO2)C1 (stereo not drawn),-1%
O=C(COc1ccccc1)N1C[C@@H](CO)[C@H](c2ccccn2)C1,2%
CS(=O)(=O)CCNC(=O)C1CCCN(C2CCN(Cc3cccnc3)CC2)C1 (stereo not drawn),?
Cc1ccc2nc3sc(C(=O)N4CCN(C)CC4)cc3cc2c1,i
COC(=O)C1=C[C@@H](O)[C@@H](O)[C@H](O[C@@H]2O[C@H](COC(=O)/C=C/c3ccccc3)[C@@H](O)[C@H](O)[C@H]2O)C1,-12%[10 µM]
CNC(=O)c1c(-c2ccc(F)cc2)oc2cc(N(CCO)S(C)(=O)=O)c(C3CC3)cc12,4%&-6%
CCCn1c(=O)n(-c2ccccc2Cl)c(=O)c2sc3ccccc3c21,-29%
CC(C)c1ccc2c(c1)C(O)CC1C(C)(CO)CCCC21C (stereo not drawn),?
Cc1cc(C)nc(NC(=S)N2CCN(c3cc(C(F)(F)F)nc4ccc(C(F)(F)F)cc34)CC2)c1,i
CN(CC1(C)CCCO1)S(=O)(=O)c1ccc(Cl)c(S(N)(=O)=O)c1 (stereo not drawn),6%
N#Cc1cnc(NS(=O)(=O)c2ccc(NC(=O)Cc3ccc(F)c(Cl)c3)cc2)s1,i
COCC1CN(Cc2c(C)n[nH]c2C)CC12CCNCC2 (stereo not drawn),-28%
O=S(=O)(c1ccc2c(c1)OCCO2)N1CCN(S(=O)(=O)c2ccc3c(c2)OCCO3)CC1,-1%&-9%
O=C(Nc1ccc(C(F)(F)F)cc1)C1CCCN(S(=O)(=O)c2cccc3cccnc23)C1 (stereo not drawn),-7%
COc1cccc(Cn2ncc3c4sc(C)cc4n(C)c3c2=O)c1,-1%
COCCCN1CCC(NC(=O)c2cc(Cl)c(N)c3c2OCC3)CC1,-2%
Cc1noc([C@H]2CCN(S(C)(=O)=O)C[C@H]2NC(=O)C2CC2)n1,-3%
O=C(NCCc1ccccn1)c1cccnc1OC1CCNCC1,i
COc1ccccc1Oc1ncccc1CNC(=O)Nc1cccc(C#N)c1,0%
CCCCC1C(=O)N(C)CCN1c1nc2c(s1)c(C)nn2C (stereo not drawn),i
# Next compounds
SMILES,nsP2pro inh
Cc1ccc2nc(NCc3ccccc3Cl)c3nnnn3c2c1,-12%
Cc1cccc(NC(=O)C2CCCN(S(=O)(=O)c3cccc4nonc34)C2)c1 (stereo not drawn),-22%
CC(C)(C)NCC(O)c1ccccc1Cl (stereo not drawn),-5%
CC1(C)SC2C(NC(=O)[C@H](C(=O)O)c3ccsc3)C(=O)N2C1C(=O)O (stereo partly drawn),-6%
CCOc1ccc(NC(=O)CC(C)O)cc1 (stereo not drawn),-3%
COC1CN(c2cccc(F)c2)C12CCN(S(=O)(=O)c1cccs1)CC2 (stereo not drawn),-10%
O=C(N[C@@H]1COCC[C@@H]1OCC1CC1)c1ccc2c(c1)CCCO2,-10%
C=C[C@H]1[C@H](O[C@@H]2O[C@H](CO)[C@@H](O)[C@H](O)[C@H]2O)OC=C2C(=O)N3Cc4c([nH]c5ccccc5c4=O)[C@@H]3C[C@H]21,-1%[10 µM]
C[C@]12C=CC(=O)C=C1[C@@H](F)C[C@@H]1[C@@H]2[C@@H](O)C[C@@]2(C)[C@H]1CC[C@]2(O)C(=O)CO,-3%
CCn1cc(C(=O)NCCc2ccc(C)cc2)c(=O)c2cc(S(=O)(=O)N3CCc4ccccc4C3)ccc21,-23%
CC(=O)N[C@H](Cc1c[nH]c2ccccc12)C(=O)OCc1cc(C(F)(F)F)cc(C(F)(F)F)c1,-1%
CCOc1ccccc1-n1c(C(C)N2CCN(C(=O)COc3ccc(Cl)cc3)CC2)nc2ccccc2c1=O (stereo not drawn),2%
O=C(O)c1ccc(C2Nc3ccccc3-c3nnc(SCc4ccc(Cl)cc4)nc3O2)cc1 (stereo not drawn),-23%
O=C(O)c1ccc(S(=O)(=O)N[C@H](Cc2c[nH]c3ccccc23)C(=O)O)cc1,2%
O=P(O)(NCCCl)NCCCl,12%

# 3 compounds out of the list, ordered by count of non-hydrogen atoms, smallest number first:
SMILES,nsP2pro inh
Cc1cccc(NC(=O)C2CCCN(S(=O)(=O)c3cccc4nonc34)C2)c1 (stereo not drawn),-22%
O=C(O)c1ccc(C2Nc3ccccc3-c3nnc(SCc4ccc(Cl)cc4)nc3O2)cc1 (stereo not drawn),-23%
CCOc1ccccc1-n1c(C(C)N2CCN(C(=O)COc3ccc(Cl)cc3)CC2)nc2ccccc2c1=O (stereo not drawn),2%
